# eIF4H FP inh – inhibitors of RNA binding by human eIF4H; Q15056; eIF4H fluorescence polarization binding assay; inhibition, % at 35 µM; 290,000 tested, 0.94% active; AID 2012;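 active = 50% or more with normal probe brightness, or confirmed in later tests; inconclusive = above 50% with abnormal brightness, or retests that disagree; inactive = below 50% or failed in later tests; about a fifth of its hits are not listed in these tables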;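 also: calls also rest on retests at 20 µM and on dose response follow-up; 0% = protein and probe with vehicle and 100% = probe without protein; strong numbers were not always called active; many hits fall short of the cut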
# CSC inhib – blocks cancer stem cells; cancer stem cell-like cells viability, luminescence; inhibition, % at 7.5 µM; 300,000 tested, 1.1% active; AID 2717;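 active = mean at 75% or more and at least half the replicates too; inconclusive = mean and replicates disagree; tested in HMLE shEcad cells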;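 also: 0% = median of negative and 100% = median of positive control wells; the first replicate is given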
# MT1-MMP act inh – inhibitors of human MT1-MMP activation; 360,000 tested, 0.061% active; P50281; GFP/RFP ratio change, % at 20 µM; HT1080 RFP-PRO-GFP cells, GFP/RFP ratio fluorescence, overnight; percent of plate control window, DMSO zero;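 active = GFP/RFP ratio change of at least 30% with cell ATP level not reduced by more than half and red fluorescence within 50% of control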; also: strong numbers were not always called active
#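 Compound: 20 µM single dose, 1% DMSO / System: HT1080 RFP-PRO-GFP cells / Controls: DMSO and RFP-L50D-GFP cell wells / Read-out basis: GFP/RFP fluorescence ratio / Schedule: overnight compound exposure at 37 °C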
# HIV Env fusion – HIV envelope-mediated fusion inhibition. HeLa-JRFL Env/CEM21 cell fusion, luciferase. inhibition, % at 12.3 µM. 360,000 tested, 1.1% active. AID 651610;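 active = mean replicate inhibition score of at least 50 and every replicate individually at or above 50; inconclusive = only one of the two criteria met; inactive = mean below 50 and not all replicates reaching 50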;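 also: 0% = plate neutral controls and 100% = maraviroc near 300 nM; one replicate is shown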
# Rce1 inhib – yeast Ras-converting enzyme inhibition; yeast membranes, quenched prenylated peptide cleavage fluorescence; 290,000 tested, 0.27% active; Q03530; calls only;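 active = fall in fluorescence gain of 50% or more versus controls, with final raw signal at or below 3038400; inconclusive = same 50% fall but final raw signal above 3038400; inactive = fall in fluorescence gain under 50%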;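 also: plate controls were neutral control wells for no effect and wells lacking membranes for full effect; tested at 10 µM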
# Target sequence (Q03530 whole entry, looked up): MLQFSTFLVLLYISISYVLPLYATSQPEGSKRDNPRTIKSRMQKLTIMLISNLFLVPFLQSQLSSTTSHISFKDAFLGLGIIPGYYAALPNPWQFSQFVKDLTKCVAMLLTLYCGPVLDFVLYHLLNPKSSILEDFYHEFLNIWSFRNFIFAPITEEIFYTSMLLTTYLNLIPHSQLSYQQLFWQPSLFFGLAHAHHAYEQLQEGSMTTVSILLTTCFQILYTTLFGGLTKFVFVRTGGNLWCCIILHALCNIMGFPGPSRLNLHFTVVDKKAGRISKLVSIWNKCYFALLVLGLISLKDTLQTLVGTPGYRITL
# UUG fidelity – yeast start codon fidelity modulation | S. cerevisiae UUG-firefly luciferase reporter, luminescence/redox ratio | activity score, % at 18.7 µM | 350,000 tested, 0.13% active | AID 602363;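 active = replicate mean at a twofold rise or more, about +100% in these data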;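 also: firefly luciferase made from a UUG start codon reports start codon fidelity; reporter light over untreated wells divided by growth signal over untreated wells; some hits fall short of that in this replicate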
# PABP polyA inh – blocks human PABP binding to poly(A) RNA. P11940. fluorescence polarization. inhibition, % at 35 µM. 290,000 tested, 1% active;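 active = 50% or more with normal probe brightness, or confirmed in later tests; inconclusive = above 50% with abnormal brightness, or retests that disagree; inactive = below 50% or failed in later tests; about a fifth of its hits are not listed in these tables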;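 also: calls also rest on retests at 20 µM and on dose response follow-up; controls were probe without protein and protein plus probe with vehicle; some compounds called inactive have numbers as strong as hits; many hits fall short of the cut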
# Target sequence (P11940 whole entry, looked up): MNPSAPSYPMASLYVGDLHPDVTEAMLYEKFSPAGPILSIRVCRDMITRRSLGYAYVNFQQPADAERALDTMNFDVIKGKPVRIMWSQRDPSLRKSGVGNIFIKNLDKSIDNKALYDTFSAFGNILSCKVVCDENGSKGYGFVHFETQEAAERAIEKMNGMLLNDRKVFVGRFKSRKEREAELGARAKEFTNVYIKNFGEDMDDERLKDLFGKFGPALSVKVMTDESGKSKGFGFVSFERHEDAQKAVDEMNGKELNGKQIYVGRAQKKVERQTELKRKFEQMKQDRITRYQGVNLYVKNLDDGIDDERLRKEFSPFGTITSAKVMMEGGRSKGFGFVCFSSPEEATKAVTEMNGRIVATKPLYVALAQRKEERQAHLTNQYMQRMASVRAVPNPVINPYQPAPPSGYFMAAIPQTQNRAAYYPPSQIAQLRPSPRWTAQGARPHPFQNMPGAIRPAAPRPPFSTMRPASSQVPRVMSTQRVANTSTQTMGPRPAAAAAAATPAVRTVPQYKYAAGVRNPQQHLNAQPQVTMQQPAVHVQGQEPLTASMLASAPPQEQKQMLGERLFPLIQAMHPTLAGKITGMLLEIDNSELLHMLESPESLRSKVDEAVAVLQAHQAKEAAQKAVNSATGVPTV
# eIF4H FP inh retest – also measured in eIF4H FP inh; calls as there; inhibition, %; compound at 20 µM; confirmation average;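 mean of two retest wells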
# PABP polyA inh retest – also measured in PABP polyA inh; calls as there; inhibition, %; compound at 20 µM; confirmation repeats;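 mean of two retest wells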
# MT1-MMP act inh RFP – also measured in MT1-MMP act inh; calls as there; RFP signal change, %; measured here: RFP expression control read;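 0 = vehicle wells; hits needed this value within 50% of zero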
# * marks the source's active call; other numbers are inactive results; i = inactive; ? = inconclusive; · = no result given; + = active, no number.
SMILES,eIF4H FP inh,CSC inhib,MT1-MMP act inh,MT1-MMP act inh RFP,HIV Env fusion,Rce1 inhib,UUG fidelity,PABP polyA inh,others
CC1=NCCc2c1[nH]c1ccccc21,-3,16,-9,8,·,i,13,2,
O=C(O)C1C2c3ccccc3C(c3ccccc32)C1C(=O)Nc1ccccc1 (centres undefined),-7,5,-6,4,1,i,-7,-3,
CCC(=NCCc1ccccc1)c1c(O)[nH]c(=O)[nH]c1=O,-3,-9,5,4,12,i,·,1,
COc1cccc(C(=O)C2CN(C)CC2c2ccc(Cl)cc2)c1 (centres undefined),-2,9,-3,2,-4,i,·,-3,
COc1ccc(C(=O)C2CCCN(Cc3cnc(C)s3)C2)c(OC)c1 (centres undefined),-6,-18,9,-2,35,i,-12,-15,
CCOC(=O)c1cc(C(O)(C(=O)OC)C(F)(F)F)c(/N=C/N(C)C)o1 (centres undefined),6,-5,1,-5,-64,i,-10,-2,
CC(NCc1ccccc1Cl)C(O)c1ccccc1 (centres undefined),1,0,5,1,·,i,-23,1,
CCC(c1nnnn1C1CCCCC1)N1CCC2(CC1)C(=O)NCN2c1ccccc1 (centres undefined),·,·,1,2,17,·,-10,·,
C[C@]1(O)CCC2C3CC[C@H]4C[C@@H](OC(=O)CNC(=O)CN)CC[C@]4(C)C3CC[C@@]21C (some centres undefined),·,-12,4,-2,-2,·,3,·,
CCCCN1C(=O)/C(=C\c2ccco2)C(=O)N(CCc2ccccc2)C1=O,?,-17,-14,45,-146,i,-8,60*,
CCN(CC)C(=O)c1ccc(NC(=O)c2cccc(F)c2)cc1,-10,-7,2,1,-110,i,-8,-4,
Fc1cccc(-c2ccc3c(c2)CNCc2cnnn2-3)c1,·,·,2,4,2,·,-10,·,
NCC(CC(=O)O)C1CCCCC1 (centres undefined),2,-14,5,3,·,i,-21,4,
CC(C)Oc1ccc(CC2(CCc3ccncc3)C(=O)NC(=O)NC2=O)cc1,-6,-14,0,0,-13,i,·,5,
Cc1ncoc1C(=O)NCC1=C(c2cccc3ccccc23)C[C@@H]2CC[C@H]1N2Cc1ccco1,·,·,1,1,-118,·,-11,·,
COc1ccc(-n2c(O)c(C(C)=Nc3ccc4c(c3)CCC4)c(=O)[nH]c2=O)cc1,-1,-4,1,-3,12,i,-4,-1,
Cc1nn(-c2ccccc2)c(C)c1NC(=O)COC(=O)Cc1ccccc1,·,-8,2,3,12,i,16,·,
COCCOC(=O)c1c(C)n(C)c2ccc(OC(=O)N(C)C)cc12,-2,-10,14,5,6,i,-29,2,
CC(C)Oc1cccc(C(=O)C2CCCN(C3CCOCC3)C2)c1 (centres undefined),2,41,-7,1,30,i,-6,11,
O=C(c1cccn2c(=O)c3ccccc3nc12)N1CCC2(CC1)OCCO2,-6,15,3,0,33,i,·,11,
O=[N+]([O-])c1cccc(NP(=O)(Oc2ccccc2)Oc2ccccc2)c1,-3,6,2,-4,5,i,-6,10,
CC(=O)c1ccccc1NC(=O)C1C2CCC(O2)C1C(=O)O (centres undefined),-4,8,·,·,·,i,·,1,
Cc1cc(/C=C2\C(=O)NC(=O)N(c3ccc(Cl)cc3)C2=O)c(C)n1C,55,6,-5,5,6,i,·,31,eIF4H FP inh retest=-1;PABP polyA inh retest=7
CC(C(=O)c1ccccc1)N1C(=O)c2ccccc2C1=O (centres undefined),0,-7,4,4,-4,i,·,-11,
CCCCn1c(=O)c(C(=O)NCc2ccc(Cl)cc2)c(O)c2ccccc21,-7,76*,-5,-15,11,i,-10,6,
COC(=O)C1=C(c2c(C)noc2C)C[C@@H]2CC[C@H]1N2C(=O)NC(C)C,·,-7,1,3,23,·,7,·,
N[C@@]1(C(=O)O)CC[C@@H](C(=O)O)C1,·,-3,-1,2,-11,·,-5,·,
Brc1ccccc1,-10,-8,8,7,·,i,36,2,
CN(C)c1ccc(P(=S)(N(C)C)N(C)C)cc1,7,0,-2,-2,7,i,-5,0,
CCCCCn1c(=O)c(C(=O)Nc2nc3ccccc3[nH]2)c(O)c2ccccc21,14,8,-3,7,-1,i,-9,-8,
CC(=O)OC1N=C(c2ccccc2)c2cc(Br)ccc2NC1=O (centres undefined),6,-4,-4,-1,-20,i,-2,0,
Cc1nn(Cc2ccccc2)c(C)c1C(=O)OCC(=O)NC1CCS(=O)(=O)C1 (centres undefined),0,-8,4,2,·,i,-2,-2,
OC1(CN2CCOCC2)C2CC3CC(C2)CC1C3 (centres undefined),-7,6,3,-2,·,i,-8,8,
Cc1ccc(C(=O)N/C(=C\Cl)P(=O)(c2ccccc2)c2ccccc2)cc1,11,6,3,4,-1,i,·,15,
CC(C)CN1Cc2cc(N3CCCCC3)ccc2-n2nncc2C1,·,·,6,3,-4,·,-3,·,
O=C(NC1CN2CCC1CC2)c1cccc(Cl)c1 (centres undefined),-7,-10,-4,1,4,i,-4,-6,
CC(C)CCC1(CCc2ccncc2)C(=O)NC(=O)NC1=O,-3,-19,-4,-1,-46,i,-14,0,
COC(=O)C1=C(c2cccc(OC)c2OC)C[C@@H]2CC[C@H]1N2C(=O)NCc1ccccc1,·,-1,-1,-3,-39,i,-2,·,
CCOC(=O)[C@]12Cc3cc(OC)ccc3[C@H]1N(Cc1ccccc1)C(=O)c1cc(F)c(F)cc12,·,·,-13,-11,-16,·,4,·,
Cc1cc(C(=O)O)c(C)n1C1CC1,-2,-4,1,0,9,i,·,-1,
COc1ccc(N=Cc2c(O)n(Cc3ccccc3)c(=S)[nH]c2=O)c(OC)c1,?,5,-18,-2,3,i,·,?,
Cc1ccsc1CNCCc1ccccc1F,2,1,-2,0,5,i,-11,-15,
CC(C)(C)c1cc(C=C(C#N)C#N)cc(C(C)(C)C)c1O,·,81*,5,-35,-16,·,-18,·,
CCOC(=O)c1c(C)n(CCOC)c2ccc(O)cc12,17,·,6,3,-25,i,-9,12,
Cc1cccc(OP(N)(=O)Oc2cccc(C)c2)c1,-14,-1,2,5,-6,i,·,-7,
O=C1C2CCCN2C(c2ccc(Cl)c(Cl)c2)N1c1ccccn1 (centres undefined),-6,12,2,5,-46,i,-16,-3,
Cc1ccc(CS(=O)(=O)CCC(=O)N2CCC3(CC2)OCCO3)cc1,6,-3,-8,-1,·,i,-12,2,
Cc1cccc(NC(=O)OC2CN3CCC2CC3)c1 (centres undefined),1,-10,3,5,-15,i,·,8,
OC(Cn1c2ccccc2c2ccccc21)C[n+]1cccc2ccccc21 (centres undefined),-6,·,-5,-4,-13,i,-12,-10,
COC(=O)C1=C(c2cc3ccccc3o2)C[C@@H]2CC[C@H]1N2C,·,5,-4,2,3,·,-16,·,
Cc1nc2c(=O)n(C)c(=O)nc-2n(C)n1,5,2,-26,-37,·,i,·,5,
C[C@H]1CCCC(=O)CCCCCc2cc(O)cc(O)c2C(=O)O1,-7,4,-1,-5,12,i,-4,-2,
O=C(Cc1ccccc1)N1CCN(Cc2ccccc2Cl)CC1,9,10,1,0,15,i,-17,2,
Cn1c(O)c(C=NCCN2CCOCC2)c(=O)n(C)c1=S,-2,-9,-4,-2,0,i,·,-1,
O=C1/C(=C\c2cccnc2)N2CCC1CC2,-3,-10,-2,4,11,i,·,-2,
O=[N+]([O-])c1cc(-n2cnnn2)c(O)c([N+](=O)[O-])c1,6,6,-9,3,1,i,-13,15,
CCOc1ccc(C2C(C#N)=C(N)Oc3c2c(=O)oc2ccccc32)cc1 (centres undefined),7,·,2,0,-4,+,1,-12,
COc1ccc2c(c1O)-c1cccc3c1[C@@H](C2)N(C)CC3,·,-13,-1,6,-20,i,3,·,
C[C@](N)(CCP(=O)(O)O)C(=O)O,·,-15,1,3,2,·,0,·,
COc1cccc(CNCCc2cccc(F)c2)c1OC,1,-9,-2,3,-3,i,-14,4,
# (further entries)
SMILES,eIF4H FP inh,CSC inhib,MT1-MMP act inh,MT1-MMP act inh RFP,HIV Env fusion,Rce1 inhib,UUG fidelity,PABP polyA inh,others
CCOC(=O)CNC(=O)CSP(=S)(OCC)OCC,2,-13,·,·,3,i,-8,-9,
CCCCc1ccc2[nH]cc(CCN)c2c1,-9,·,-1,6,·,i,-7,-4,
Nc1c(C(=O)NCCc2ccccc2)c2nc3ccccc3nc2n1CCN1CCOCC1,-5,·,-4,-2,·,i,4,3,
COc1ccc(C(=O)N2C[C@H]3C[C@@H](C2)c2cccc(=O)n2C3)cc1OC,9,-4,-1,3,·,·,2,-13,
COC(=O)C1=C(c2ccc(Cl)c(C(F)(F)F)c2)C[C@@H]2CC[C@H]1N2C(=O)NC1CC1,·,-15,3,-11,1,·,-5,·,
Cc1ccc2c(c1)=C/C(=C\c1c(O)[nH]c(=O)[nH]c1=O)C(=O)N=2,-2,-12,0,2,-102,i,·,1,
Cc1ccc(-c2cc(-c3ccc(C)cc3)[n+](-c3ccc(C(=O)[O-])cc3)c(-c3ccc(C)cc3)c2)cc1,·,17,1,-7,10,i,4,·,
CCCCCCC(C)(C)c1ccc([C@@H]2C[C@H](O)CC[C@H]2CCCO)c(O)c1,·,103*,-3,-9,-6,·,2,·,
Cn1c(O)c(/C=N/N2CCOCC2)c(=O)n(C)c1=S,14,-7,-4,-1,-1,i,-19,-11,
C[N+]12CCC(CC1)C(C#N)(N1CCOCC1)C2 (centres undefined),-3,-8,-4,3,-68,i,·,34,
O=C(Cn1cc(C(=O)c2ccccc2F)c2ccccc21)NC1CC1,2,25,1,2,0,·,·,-2,
COc1cccc(C2(O)CCN(Cc3ccncc3)CC2)c1,12,-5,-2,2,12,i,·,16,
Cc1ccc(-n2c(O)c(C=Nc3ccc(Br)cn3)c(=O)[nH]c2=O)cc1,?,-25,-36,4,-9,i,·,?,
COC(=O)c1ccccc1NC(=O)N1C[C@@H]2C[C@@H](C1)c1cccc(=O)n1C2,-6,-6,4,4,·,i,-23,4,
CC(C)(C)C(=O)N1Cc2ccccc2-n2nncc2C1,·,·,5,2,5,·,-4,·,
COc1ccc(CN2C(=O)NC(=O)/C(=C\c3ccco3)C2=O)cc1,134,3,-19,16,-7,i,3,71,eIF4H FP inh retest=6;PABP polyA inh retest=5
O=C(C1CCN(S(=O)(=O)c2ccccc2)CC1)N1CCC2(CC1)OCCO2,-4,-16,6,-3,27,i,-19,0,
COc1ccc(N2C(=O)NC(=O)/C(=C/c3ccc4c(c3)Cc3ccccc3-4)C2=O)cc1,-9,-4,·,·,·,·,·,-5,
Cc1nn(Cc2c(Cl)cccc2Cl)c(Cl)c1C(=O)O,-2,-1,-1,4,-1,i,-7,-6,
Cc1nn(Cc2ccccc2)c(C)c1C(=O)OCC(=O)Nc1cc(S(C)(=O)=O)ccc1Cl,-20,-3,-1,-4,7,i,·,-28,
CN1c2ccc([N+](=O)[O-])cc2CC2(C(=O)NC(=O)NC2=O)C1c1ccccc1 (centres undefined),9,-4,4,0,1,i,·,4,

# Ordered by SMILES length (falling): some entries from above
SMILES,eIF4H FP inh,CSC inhib,MT1-MMP act inh,MT1-MMP act inh RFP,HIV Env fusion,Rce1 inhib,UUG fidelity,PABP polyA inh,others
COc1ccc(N2C(=O)NC(=O)/C(=C/c3ccc4c(c3)Cc3ccccc3-4)C2=O)cc1,-9,-4,·,·,·,·,·,-5,
COc1ccc(CN2C(=O)NC(=O)/C(=C\c3ccco3)C2=O)cc1,134,3,-19,16,-7,i,3,71,eIF4H FP inh retest=6;PABP polyA inh retest=5
Cc1nn(Cc2c(Cl)cccc2Cl)c(Cl)c1C(=O)O,-2,-1,-1,4,-1,i,-7,-6,

# Source: PubChem BioAssay

# An excerpt. The share of hits here may be higher or lower than overall.
